# From PubChem BioAssay
# miR-21 FLuc = miR-21 reporter, rising signal | HeLa miR-21 FLuc reporter, luciferase, 48 h | Potency, µM (titrated, usually from 38.3 µM), inactives show top-dose reporter change, positive = more light | 340,000 tested, under 10 active | AID 2288; active = well fitted rising curve with a large enough effect; inconclusive = small, poorly fitted or top-dose-only effect; inactive = no such curve, though single readings can be large or run the other way;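 further: % of control where 0% means no effect; miR-21 action dims this reporter so a rising signal means less miR-21 action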
#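 Compounds were titrated across several concentrations (up to approximately 40 uM) and incubated 48 hours with HeLa miR-21-FLuc reporter cells (miR-21 target sequence downstream of FLuc, endogenous miR-21). Readout was firefly luciferase luminescence after lytic detection reagent.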
# GLA inh pH 4.5 = inhibitors of human alpha-galactosidase A at pH 4.5; P06280; 230,000 tested, under 10 active; AID 1467; purified enzyme, 4-MU-alpha-Gal fluorescence, pH 4.5; activity change, negative = inhibition, % at 105 µM; inconclusive = small, poorly fitted or top-dose-only inhibition, or a rising curve; inactive = flat fitted curve, though single readings scatter; no compound was filed as active;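 further: 0% = full activity with enzyme and -100% = basal without enzyme; dose as in the result columns while the protocol names 77 µM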
# Rango dissoc inh = inhibition of RanGTP-driven Rango-importin beta dissociation; O95149+P62826; Biochemical FRET Rango-importin beta, RanGTP-induced dissociation; Potency, µM (highest dose often 46.1 µM), for inactives: top-dose activity change, negative = inhibition; hit rate 0.071% among 340,000; AID 540253; active means falling FRET ratio curve, often poorly fitted, with flat reads before Ran was added; inconclusive means other falling curves, or compound fluorescence or quenching; inactive means flat or rising ratio curve;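 further: potency means the concentration at half of the fitted maximal effect; % of control where 0% means no effect; nearly all actives have a fitted effect of over 45% in size; -100% = wells without RanGTP and RCC1; the record marks most hits as doubtful in a second field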
#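 Compounds sat 5 min at room temperature with 0.1 uM Rango biosensor plus 0.25 uM importin beta, then FRET pre-read. RanGTP-RCC1 (0.6 uM Ran, 2mM GTP, 0.2 uM RCC1) added for 45 min, and the CFP/YFP post-read measured blocked complex dissociation.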
# Rango-impB inh = prevents formation of the Rango-importin beta complex; Potency, µM (titrated, usually from 92.2 µM), inactives show top-dose inhibition of complex formation; hit rate 0.031% among 340,000; AID 540263; Rango CFP/YFP FRET sensor + importin beta, 45 min; active = rising FRET ratio curve, often small or poorly fitted; inconclusive = mostly compound fluorescence or quenching in the first reads; inactive = flat curves in all reads;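 further: potency means the concentration at half of the fitted maximal effect; 0% = DMSO wells and 100% = buffer wells lacking importin beta; nearly all actives have a fitted effect of over 15% in size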
# Target sequence (Q14974 whole entry, looked up): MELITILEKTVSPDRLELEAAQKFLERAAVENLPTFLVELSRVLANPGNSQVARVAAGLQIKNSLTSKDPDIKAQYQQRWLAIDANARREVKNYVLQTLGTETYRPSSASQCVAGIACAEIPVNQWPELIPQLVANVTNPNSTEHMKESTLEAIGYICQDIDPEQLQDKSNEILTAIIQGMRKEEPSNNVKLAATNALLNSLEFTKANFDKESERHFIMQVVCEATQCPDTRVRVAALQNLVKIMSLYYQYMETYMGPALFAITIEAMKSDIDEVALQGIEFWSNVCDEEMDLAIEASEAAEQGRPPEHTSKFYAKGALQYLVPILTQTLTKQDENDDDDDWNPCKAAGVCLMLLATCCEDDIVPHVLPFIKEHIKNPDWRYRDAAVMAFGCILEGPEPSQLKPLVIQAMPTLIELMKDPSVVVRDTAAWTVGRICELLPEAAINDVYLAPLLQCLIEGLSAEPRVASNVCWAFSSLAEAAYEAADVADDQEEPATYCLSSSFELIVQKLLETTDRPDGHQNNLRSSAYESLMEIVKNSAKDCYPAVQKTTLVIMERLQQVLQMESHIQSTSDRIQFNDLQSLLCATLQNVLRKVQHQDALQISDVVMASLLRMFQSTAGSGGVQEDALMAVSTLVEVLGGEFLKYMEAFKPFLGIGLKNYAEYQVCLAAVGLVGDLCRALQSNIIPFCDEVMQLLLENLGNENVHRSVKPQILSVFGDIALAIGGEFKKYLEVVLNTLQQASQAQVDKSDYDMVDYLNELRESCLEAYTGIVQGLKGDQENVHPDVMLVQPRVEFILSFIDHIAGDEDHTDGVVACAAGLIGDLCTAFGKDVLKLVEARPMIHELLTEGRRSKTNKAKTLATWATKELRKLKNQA
#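 Inhibition scored from the CFP 486 nm/YFP 530 nm FRET ratio 45 min after adding 0.125 microM importin beta to 50 nM Rango biosensor preincubated 5 min with compound (room temperature, PBS with DTT, Tween-20, BSA). No-importin wells as positive control.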
# Starred values were filed as active, the others as inactive; u = inconclusive; x = no result given; & = joins results of further samples; [ ] = remark or other dose. A portion of the library. The share of hits here may be higher or lower than overall.
SMILES,miR-21 FLuc,GLA inh pH 4.5,Rango dissoc inh,Rango-impB inh
Cc1cccnc1NC(=O)c1ccc(S(=O)(=O)N2CCC(C)CC2)cc1,x,x,1%,1.4%
O=C(O)c1ccc(Cl)c(S(=O)(=O)N(Cc2ccccc2)c2ccccc2Cl)c1,16%,x,9%,2.8%
Oc1ccccc1C=NCCCCCCN=Cc1ccccc1O,3%,3,-5%,-0.7%
COc1ccc(S(=O)(=O)NCC(=O)N(CC(=O)NCC2CCCO2)c2cc(C)ccc2C)cc1 (stereo unspecified),-1%,7,-8%,-4.6%
O=C(c1ccc2c(=O)n(-c3ccccc3)c(=O)[nH]c2c1)N1CCCCC1,15%,u,16%,0.6%
O=C(Nc1nc(=O)n(C(=O)C2CC2)s1)c1ccccc1,1%,-2,-13%,-3.3%
O=C(CN1CCN(Cc2ccccc2Cl)CC1)N/N=C/C=C\c1ccccc1[N+](=O)[O-],2%,-1,8%,-0.5%
CSc1ccc(C(=O)C2CCCN(C(=O)CCCn3cncn3)C2)cc1 (stereo unspecified),-3%,8,-9%,u
NCc1ccccc1COc1ccccc1,-16%,x,26%,-1.5%
CCCOc1ccc(CCC(=O)N/N=C/c2ccncc2)cc1,0%,-8,-17%,-6.3%
CC(C)N(C(C)C)S(=O)(=O)c1ccc(Cl)nc1,-2%,4,-6%,-0.3%
Cc1cc(C(=O)CCC(=O)Nc2ccc(S(N)(=O)=O)cc2)c(C)s1,x,x,-3%,-0.1%
O=C(c1ccc(Br)o1)N1CCc2ccccc21,-39%,2,x,x
COCCNC(=O)CCn1c(=O)oc2ccccc21,-2%,-12,-4%,-0.4%
Cc1ccc(S(=O)(=O)NCC(=O)N(CC(=O)NCC2CCCO2)c2ccc(Cl)cc2)cc1 (stereo unspecified),-2%,x,9%,1.3%
Cn1c(SCC(=O)Nc2cccc(F)c2)nnc1-c1cccnc1,-10%,-2,1%,0.2%
Cc1cccc(OCCNc2cc(N3CCOCC3)ccc2[N+](=O)[O-])c1,-43%,-5,32%,5.5%
Cc1ccc(-c2nn3c(=O)c(C)nnc3s2)cc1,-24%,-9,3%,0.5%
CCCCc1cc(=O)oc2cc(OS(C)(=O)=O)ccc12,-58%,0,-22%,-1.3%
COc1ccc([C@H]2CC(=O)C=C(c3cccc4c3Oc3ccccc3S4)C2)cc1,x,x,1%,1.4%
O=C(NCCNC(=O)c1ccc(-c2ccc(Cl)c(Cl)c2)o1)c1cnccn1,-1%,x,-4%,2.1%
O=C(Cn1c(C(=O)OCCO)cc2ccccc21)c1ccccc1,0%,x,1%,1.4%
CC(=O)c1c(O)c2ccccc2n(C(C)C)c1=O,-3%,2,-2%,-1.8%
CCOc1ccc(C(=O)NCC(=O)NCC2CCCCC2)cc1OCC,0%,x,5%,-0.2%
C[C@H](CO)N1C[C@H](C)[C@@H](CN(C)Cc2ccc(-c3ccccc3)cc2)Oc2c(NC(=O)c3ccncc3)cccc2C1=O,x,x,15%,1.0%
CC(=O)N(Cc1nc2sc(C)c(C)c2c(=O)[nH]1)C1CCCC1,0%,0,-3%,0.3%
O=C(N/N=C/c1ccco1)c1cccc(N2Cc3ccccc3C2)c1,-10%,-5,-13%,-5.8%
Cn1c(=O)c2c(ncn2CC(=O)Nc2ccccc2N2CCOCC2)n(C)c1=O,-5%,6,5%,4.7%
CCN(CC)C(=O)CSc1nnc(COc2cccc(C)c2)n1C,-2%,2,x,x
COc1cc(OC)cc(C(=O)NNC(=S)Nc2ccc(S(N)(=O)=O)cc2)c1,16%,4,-6%,0.3%
Cc1cc(C)cc(NC(=O)CSc2nc3c(oc4ccccc43)c(=O)n2-c2ccccc2)c1,-6%,-7,-12%,0.5%
O=C(CCc1nnc2ccc(N3CCC4(CC3)OCCO4)nn12)Nc1cc(F)ccc1F,0%,x,4%,0.2%
Cc1ccccc1NC(=O)Cc1nnc(N)s1,0%,0,2%,-0.3%
CCOc1ccc(Cn2c(=O)sc3ccccc32)cc1OC,3%,9,-18%,0.4%
N#CC(c1ccncc1)(c1ncc(C(F)(F)F)cc1Cl)N1CCOCC1 (stereo unspecified),-2%,-9,0%,-1.7%
Cc1nonc1NC(=O)CSc1nc2ccccc2cc1C#N,-21%,0,u,u
O=C(COC(=O)C12CC3CC(CC(C3)C1)C2)NCCc1ccccc1,-2%,-11,-14%,-2.1%
COc1ccc(OC)c(NC(=O)CNC(=O)c2ccc([N+](=O)[O-])cc2)c1,-2%,-17,15%,-0.1%
Cn1cc(Br)c(C(=O)n2cc(Br)cn2)n1,-9%,9,-6%,-1.5%
Cc1cccc2cc(/C=N/NC(=O)CN3CCOCC3)c(Cl)nc12,-6%,2,-12%,-1.2%
C=C1CC2C(CCC3(C)C2CCC3(O)C(C)=O)C2(C)CCC(=O)C=C12 (stereo unspecified),1%,x,1%,-0.2%
CCn1c(=O)c2c(nc3n2CCCN3CCc2ccc(OC)c(OC)c2)n(C)c1=O,5%,x,u,-5.8%
COC(=O)Nc1nc(-c2ccccc2)c(C(=O)c2ccccc2)s1,22%,3,-6%,-1.1%
COc1cccc(/C=C2\Oc3cc(OCC(=O)N4CCCCC4)ccc3C2=O)c1OC,7%,x,-4%,u
Cc1nn(-c2ccccc2)c(NC(=O)c2cccs2)c(-c2ccccc2)c1=O,-1%,3,-7%,1.5%
CCOC(=O)C(=O)N/N=C/c1ccc(F)cc1,12%,-10,0%,-1.2%
O=C1OCC2=C1C(c1ccccc1)CC(=O)N2c1ccccc1 (stereo unspecified),2%,-2,8%,1.3%
COc1cccc(C(=O)OCC(=O)c2[nH]c(C)c(C(C)=O)c2C)c1,x,x,-11%,-2.9%
O=C(Nc1ccc(S(=O)(=O)Nc2cnc3ccccc3n2)cc1)c1cccc(OC(F)F)c1,-12%,x,7%,-1.9%
CCOc1cccc(C(=O)Nc2nnc(-c3ccco3)s2)c1,-14%,-1,15%,-1.9%

# (more compounds)
SMILES,miR-21 FLuc,GLA inh pH 4.5,Rango dissoc inh,Rango-impB inh
CCOc1ccc(CCNC(=O)CCC(=O)N2CCOc3ccc(C)cc32)cc1OCC,3%,x,4%,3.8%
O=C(C[C@H]1C/C=C\CCC(=O)O[C@@H](c2ccccc2)CNC1=O)NCCO,x,x,-24%,0.6%
NC(=O)C1CCN(C2CC(=O)NC2=O)CC1 (stereo unspecified),-1%,-1,-13%,-1.1%
CN1CCN(S(=O)(=O)c2cccc(C(=O)Nc3cccc(S(N)(=O)=O)c3)c2)CC1,1%,x,6%,-1.6%
COc1cc(S(=O)(=O)NC(C)C)ccc1Cl,-1%,1,-1%,-0.3%
O=C(COCC(=O)NCc1ccccc1)NCc1ccccc1,0%,-5,19%,3.1%
COc1ccc(CNC(=O)c2ccc(NC(=O)CC3SC(N4CCCCC4)=NC3=O)cc2)cc1 (stereo unspecified),-6%,-13,5%,0.6%
CCOc1ncccc1C(=O)Nc1ccc(S(=O)(=O)Nc2nccs2)cc1,-21%,5,-4%,6.3%
Cc1ccnc(NC(=O)C2CCC(CNc3c(N4CCCC4)c(=O)c3=O)CC2)c1 (stereo unspecified),10%,-2,1%,-0.4%
COc1ccccc1/C=C/C=N/NC(=O)c1ccccn1,-29%,-6,-6%,4.2%
Cn1cnc(Sc2ncnc3nc[nH]c23)c1[N+](=O)[O-],8%,7,-1%,-1.9%
CCOc1ncccc1C(=O)OCC(=O)c1cc(C)n(Cc2ccco2)c1C,-63%,-2,1%,-1.9%
Cc1ccc(S(=O)(=O)NCCCNC(=O)N2CCOCC2)cc1,3%,-2,-4%,-1.3%
CCn1c(SCc2cccc(C)c2)nnc1-c1ccccc1,-20%,1,-13%,-2.7%
O=c1ccc2ccc(Oc3ccc([N+](=O)[O-])cc3Cl)cc2o1,-6%,-1,0%,0.6%
O=C(COC(=O)Cn1cnc2ccccc21)Nc1cccc2c1C(=O)c1ccccc1C2=O,-5%,-4,-3%,9.2%
NC(=S)N/N=C1\CCOc2ccc(F)cc21,20%,-27,-3%,2.4%
CN(C)/C=C(\C=O)c1ccc(Cl)cc1Cl,-1%,-12,6%,-2.1%
N#Cc1c(-c2ccc3c(c2)OCO3)ccn2nc(-c3cccc(C(F)(F)F)c3)nc12,-2%,-17,-9%,-6.9%
Cc1nn(-c2ccccc2)nc1C(N)=O,0%,0,u,1.8%
CCc1nnc(NC(=O)CSc2ncnc3c2oc2ccccc23)s1,2%,-3,24%,1.9%
CCOC(=O)CNC(=O)c1cc(-c2ccccn2)nc2c(C)c(Cl)ccc12,0%,10,8%,-1.9%
Cc1ccc(S(=O)(=O)N(C)C)cc1NC(=O)C(C)OC(=O)c1ccc2ccccc2n1 (stereo unspecified),x,x,-3%,-2.5%
CCOc1ccccc1-n1c(C)nc2cc(C(=O)O)ccc21,-2%&-3%,1[21.1 µM],4%,u
COc1ccc(CN(C)CC(=O)Nc2ccc(SC(F)F)cc2)cc1OC,5%,-10,5%,5.5%
Cc1ccc(C(=O)NCC(=O)OCC(=O)Nc2cc(S(=O)(=O)N3CCOCC3)ccc2C)cc1,x,x,-1%,0.3%
COc1cc(NC(=O)c2ccc(Cl)cc2Cl)ccc1NC(=O)c1cccs1,-13%,3,22%,u
CC1CCN(c2c(NCC3CCC(C(=O)NCc4ccccc4Cl)CC3)c(=O)c2=O)CC1 (stereo unspecified),-6%,1,6%,-1.2%
COc1ccccc1NC(=O)c1ccc2nc(C)c(C)nc2c1,-14%,x,0%,-2.0%
Cc1onc(-c2ccccc2Cl)c1C(=O)NC(=S)Nc1ccc(C(C)(C)C)cc1,7%,-5,11%,0.7%

# One compound at a time (already shown):
# CCOc1ccccc1-n1c(C)nc2cc(C(=O)O)ccc21 is entered as miR-21 FLuc = -2%&-3%; GLA inh pH 4.5 = 1[21.1 µM]; Rango dissoc inh = 4%; Rango-impB inh = u
# CC1CCN(c2c(NCC3CCC(C(=O)NCc4ccccc4Cl)CC3)c(=O)c2=O)CC1 (stereo unspecified) is entered as miR-21 FLuc = -6%; GLA inh pH 4.5 = 1; Rango dissoc inh = 6%; Rango-impB inh = -1.2%

# The list continues:
SMILES,miR-21 FLuc,GLA inh pH 4.5,Rango dissoc inh,Rango-impB inh
COc1ccc(N2CCN(C(=O)CCC(=O)N3CCOc4ccc(C)cc43)CC2)cc1,15%,x,-4%,0.1%
CCOc1ccccc1N(CC(=O)Nc1cccnc1)S(C)(=O)=O,-2%,-1,-5%,2.5%
O=C(Cc1ccccc1F)Nc1ccccc1-c1ccccc1,-50%,3,-5%,-0.1%
O=C(CCCN1C(=O)c2cccnc2C1=O)Nc1ccc(F)cc1Cl,2%,x,2%,-0.6%
Clc1cc2c(cc1/C=N/Nc1nc(N3CCOCC3)nc(N3CCOCC3)n1)OCO2,1%,-2,7%,-0.8%
c1ccc(N2CCOCC2)c(Nc2nc3ccccc3n3cnnc23)c1,1%,-10,-30%,0.4%
O=S(=O)(c1ccccc1)c1nc(-c2ccco2)oc1N1CCCCC1,0%,x,3%,6.5%
Nc1ccc2c(O)cc(S(=O)(=O)O)cc2c1,x,x,u,u
COc1ccc(/C=N/NC(=O)c2ccc(N3CCCC3=O)cc2)cc1,-7%,x,4%,0.3%
O=C(CSc1nnc(NC(=O)c2cccc(F)c2)s1)NCc1ccco1,-28%,x,9%,0.1%
COc1ccc(S(=O)(=O)N2CCC(C(=O)NC3CCCC3)CC2)cc1C,0%,x,21%,5.1%
CC(=O)C1=C(O)C(=O)N(Cc2ccccc2)C1c1ccco1 (stereo unspecified),-14%,-6,-2%,-4.0%
O=C(Nc1cccc(-c2cn3c(n2)SCC3)c1)c1ccc2c(c1)OCO2,-22%,-3,-11%,-0.6%
CCC1(c2ccccc2)NC(=O)N(CC(=O)N2CC(=O)Nc3ccccc32)C1=O (stereo unspecified),x,x,-1%,8.1%
CCn1c(SCC(=O)Nc2ccccc2OC)nnc1-c1cnccn1,-1%,3,3%,4.9%
CCCCCNCc1ccc(OCc2ccc(Cl)nc2)c(OC)c1,-1%,-4,3%,-4.3%
